# CtBP-E1A inh = CtBP/E1A binding inhibition; activity change, % (no concentration beside the values); AlphaScreen GST-E1A/His-CtBP binding, 1536-well; stronger effect = lower value; control for the full effect not named in the record; actives 0.49% (n = 340,000); in the data active means activity change below about -65%; inconclusive means about -30% to -65%; inactive means above about -30%; note: % is set by controls: 0 for no effect and ±100 for the full control effect; compound concentration not given in the record
#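 Homogeneous bead-based format: GST-tagged E1A captured on glutathione donor beads, His-tagged CtBP on nickel acceptor beads; compounds precede bead addition by 2 h at 37 °C.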
# Six1-Eya2 inh = inhibitors of human Six1/Eya2 interaction; Q15475+O00167; AlphaScreen GST-Six1/His-Eya2 binding, biochemical; stronger effect = lower value; control for the full effect not named in the record; activity change, % (test concentration not listed); actives 0.56% (n = 360,000); in the data active = activity change below about -65%; inconclusive = about -30% to -65%; inactive = above about -30%; note: % is set by controls: 0 for no effect and ±100 for the full control effect; compound concentration not given in the record
#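 AlphaScreen with GST-Six1 and His-Eya2 (5X mix: 250 nM and 500 nM), glutathione donor and nickel acceptor beads; buffer 50 mM Tris pH 8.0, 300 mM NaCl, 1 mM TCEP; 1 h at 37 C in the dark.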
# gsp ag = gsp mutant agonism; Potency, µM (series often up to 76.9 µM), inactives show at the highest dose activation (cAMP increase), hits mostly activators; actives 0.13% (n = 340,000); AID 624287; gsp mutant cells, cAMP HTRF, 30 min; control for the full effect not named in the record; active = well fitted activation curve with a large enough effect; inconclusive = small, poorly fitted or top-dose-only effect, or another doubt; inactive = no such curve, though single readings can be large or run the other way; cell line not stated here;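 note: phosphodiesterase inhibitor Ro 20-1724 added with compounds to block cAMP breakdown; potency is the fitted concentration of half-maximal effect; nearly all actives have a fitted effect of over 60% in size; about a fifth of the inactives were tested at one dose only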
#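 Cells stably selected in G418 were plated at 2000/well, grown 16-24 hr, then given compounds in DMSO with the PDE inhibitor […] (300 uM solution added) for 30 min at 37C; cAMP was read by HTRF.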
# gsp antag = antagonizes gsp, the McCune-Albright syndrome mutation; AID 624288; actives 0.4% (n = 340,000); gsp-mutant cells, cAMP HTRF, 30 min; control for the full effect not named in the record; Potency, µM (highest dose often 76.9 µM), for the others: top-dose activity change, negative = inhibition, usual class: inhibitors; active = falling curve of any shape with a large fitted effect; inconclusive = falling curve, mostly with a smaller effect; inactive = flat or rising curve; cell line not stated here;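 note: intracellular cAMP measured with PDE inhibitor Ro 20-1724 present during compound exposure; potency is the fitted concentration of half-maximal effect; % is set by controls: 0 for no effect and ±100 for the full control effect; nearly all actives have a fitted effect of over 65% in size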
#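 HTRF cAMP measurement after 30 min RT detection following 30 min, 37C compound treatment alongside […] (added as 300 uM solution) in G418-selected cells seeded at 2000/well and grown 16–24 h.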
# D2 potentiator = potentiates the human D2 dopamine receptor allosterically. DiscoveRx D2 beta-arrestin cells, luminescence, 90 min; 100% = 57 uM dopamine signal. potentiation, % (test concentration not listed). actives 0.23% (n = 360,000). AID 624464; active = potentiation of 50% or more; inconclusive = 30% to 50%; inactive = 30% or less;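 note: compound concentration not given in the record; tested on top of an EC20 dose of dopamine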
# Target sequence (P14416 whole entry, looked up): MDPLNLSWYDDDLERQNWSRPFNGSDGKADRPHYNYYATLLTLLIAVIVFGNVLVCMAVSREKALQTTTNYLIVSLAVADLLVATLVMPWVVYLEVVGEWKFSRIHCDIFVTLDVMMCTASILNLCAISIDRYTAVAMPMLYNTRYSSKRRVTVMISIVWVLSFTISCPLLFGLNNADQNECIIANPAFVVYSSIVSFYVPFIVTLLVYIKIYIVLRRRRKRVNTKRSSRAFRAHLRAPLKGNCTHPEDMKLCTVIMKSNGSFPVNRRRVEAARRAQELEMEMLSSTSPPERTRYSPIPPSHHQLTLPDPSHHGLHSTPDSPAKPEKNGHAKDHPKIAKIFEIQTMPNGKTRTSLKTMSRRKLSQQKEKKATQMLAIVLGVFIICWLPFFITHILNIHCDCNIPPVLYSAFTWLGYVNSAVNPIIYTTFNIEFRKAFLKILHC
#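 PathHunter beta-arrestin assay in DiscoveRx D2 cells. Compounds were added with an EC20 of dopamine (50 nM final) for 90 min at 37 deg C. Luminescence was read 1 h after detection reagent, with 57 uM dopamine as the EC100 control.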
# D2 ag = human D2 receptor agonism in beta-arrestin assay; actives 0.084% (n = 360,000); DiscoveRx PathHunter D2 beta-arrestin, luminescence, 90 min; 100% = 57 uM dopamine signal; activation, % (no concentration beside the values); AID 624465; P14416; in the data active = activation above about 40%; inconclusive = about 15% to 40%; inactive = below about 15%; note: compound concentration not given in the record; the text of the record calls up to 30% inactive
#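 Agonist mode: compounds alone added to overnight-plated D2 PathHunter cells for 90 min at 37 C, with 57 uM final dopamine (EC100) defining full response. Beta-arrestin recruitment detected by chemiluminescent reagent, read after 1 h at ambient temperature.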
# Numbers without * were called inactive; u = inconclusive; x = not tested or not shown; [ ] = dose if it differs, or a comment.
# A first look, 2 compounds:
Molecule	CtBP-E1A inh	Six1-Eya2 inh	gsp ag	gsp antag	D2 potentiator	D2 ag
Cc1c(C)c2c(OCC(=O)N[C@@H](Cc3ccccc3)C(=O)O)cc3c(c2oc1=O)CCC(C)(C)O3	u	u	x	-21%	-13	1.2
Cc1ccccc1CN(c1ccc(C(=O)N2CCCC2)cc1)S(C)(=O)=O	7	2	-3%	-7%	-6	-3.3

# Main list, from the first entry:
Molecule	CtBP-E1A inh	Six1-Eya2 inh	gsp ag	gsp antag	D2 potentiator	D2 ag
Cc1c(C)c2c(OCC(=O)N[C@@H](Cc3ccccc3)C(=O)O)cc3c(c2oc1=O)CCC(C)(C)O3	u	u	x	-21%	-13	1.2
Cc1ccccc1CN(c1ccc(C(=O)N2CCCC2)cc1)S(C)(=O)=O	7	2	-3%	-7%	-6	-3.3
O=C(c1n[nH]c(=O)c2ccccc12)N1CCN(Cc2ccc3c(c2)OCO3)CC1	3	-4	-1%[15.4 µM]	11%	-4	-4.0
CC1(C)CC(=O)c2c(oc3cc(O)c(O)cc23)C1	3	-1	u	0%	21	3.2
O=S(=O)(Nc1ccccc1Cl)c1cc(NC(=S)NCCN2CCOCC2)ccc1Cl	2	-4	18%[15.4 µM]	-18%	-12	-1.9
CC(CC(=O)N1CCN(c2ccccc2)CC1)S(=O)(=O)c1ccc2c(c1)NC(=O)CS2 (stereo not given)	21	5	10%	-15%	-7	7.8
O=C(/C=C/Nc1ccccc1)C(F)(F)F	-15	3	-6%[15.4 µM]	7%	-3	-1.7
CCC(C)c1ccc(OCC(=O)Nc2ccc3[nH]c(=O)[nH]c3c2)cc1 (stereo not given)	6	10	-10%[15.4 µM]	11%	18	0.5
O=C(CCNC(=O)c1ccc([N+](=O)[O-])cc1)NNC(=O)c1ccncc1	-1	3	24%	-1%	-13	-0.4
Cc1ccc(-c2nc3cccnc3s2)cc1NS(=O)(=O)c1ccc2c(c1)CCCC2	-13	-11	4%	4%	-16	-2.8
O=C(CCNC(=O)c1ccccc1Cl)Nc1ccc(S(=O)(=O)N2CCOCC2)cc1	5	2	-102%[inhibitor]	x	0	-2.1
Cc1cccc(OCc2nc(-c3ccccn3)n[nH]2)c1	-89*	-94*	-22%	-17%	-12	-3.2
C/C(N)=C(/C#N)C(=O)COC(=O)C(c1ccccc1)c1ccccc1	3	0	21%[15.4 µM]	1%	-18	1.5
O=C(O)c1ccc(Nc2ncnc3scc(-c4ccccc4)c23)cc1	-12	0	7%	-5%	-2	7.0
NCc1nc(-c2ccc(Cl)cc2)no1	x	6	-13%	-9%	-11	-2.8
CCc1ccc(C(=O)NN=C2CCCCCC2)s1	4	-2	-1%	11%	2	-2.1
O=C(COc1ccc(S(=O)(=O)Nc2ccccc2)cc1)NCc1cccnc1	-2	0	-3%	-11%	-5	-2.5
O=C(CNCC1CCCO1)NCc1ccco1 (stereo not given)	-1	6	-5%[15.4 µM]	-24%	2	-5.5
O=C(Oc1cccc(N2C(=O)CCC2=O)c1)c1ccccc1	34	14	13%	14%	24	-1.7
Cc1cccc(C)c1NC(=O)c1csc([C@@H]2O[C@H](CO)[C@H](O)[C@H](O)[C@H]2O)n1	2	2	x	x	-9	-8.4
CCOC(=O)c1ccc(NC(=O)CSc2nnnn2C2CCCCC2)cc1	6	-2	-35%[inhibitor]	11%	-10	-1.2
FCCCOc1ccc(-c2ccnc(-c3ccccc3)n2)cc1	19	32	16%	1%	-20	-3.8
CCCCN1C(=O)C(=O)N(CC(=O)Nc2ccccc2C(C)=O)C1=O	-6	12	u	-1%	-13	5.1
COc1ccc(NC(=O)c2ccc(-c3ccc(F)cc3)o2)cc1OC	5	-17	9%	x	-23	5.5
Cn1c(N)c(S(=O)(=O)N2CCN(C(=O)c3ccco3)CC2)c(=O)n(C)c1=O	-25	3	18%	12%	-1	-0.9
Cc1ccc2c(c1)CCCN2C(=O)c1c(C)noc1C	-23	2	u	-4%	5	0.2
CC(=O)OCC(=O)[C@@]1(OC(C)=O)[C@@H](C)C[C@H]2[C@@H]3C[C@H](F)C4=CC(=O)C=C[C@]4(C)[C@@]3(F)[C@@H](O)C[C@@]21C	-12	6	x	8%	-14	-6.3
O=C(Nc1ccc(S(=O)(=O)Nc2cnc3ccccc3n2)cc1)c1ccc([N+](=O)[O-])cc1Cl	-7	-15	-1%	-19%	-2	-0.2
CC(=O)C[C@H](O)CC(=O)[C@H]1OC(=O)CCCCCCCCc2ccccc21	6	2	u	-18%	-2	-4.8
CCCOC1CCCN(C(=O)CCc2nnc(CCCCc3ccccc3)o2)C1 (stereo not given)	1	3	-2%	-14%	-9	-2.0
COc1ccc(Cn2nc(C)cc2C)cc1OC	7	9	-41%[inhibitor]	-12%	9	-0.3
CN(C(=O)COC(=O)c1ccc(Cl)c(N)c1)c1ccccc1	4	11	-16%	2%	-8	-6.8
COc1cccc(C(=O)Nc2nnc(-c3ccc(F)cc3)o2)c1	-4	-19	-3%	-6%	0	-3.8
CCCC(=O)NC1=C(C#N)C2(CCCC2)Cc2ccccc21	4	3	-27%	-3%	-9	-3.7
Cc1ccc([C@@H]2[C@@H]3C(=O)N(c4ccccc4)C(=O)[C@@H]3[C@]3(C)C(=O)N(Cc4ccccc4)CC(=O)N23)o1	-18	9	8%	-7%	-11	-1.4
O=C(O)c1cc(S(=O)(=O)Nc2ccc3c(c2)OCCO3)c(Cl)cc1Cl	0	3	-9%	6%	-2	-2.4
O=C(Nc1ccc(S(=O)(=O)Nc2ncccn2)cc1)C(F)(F)F	1	-3	-5%	10%	-5	0.0
COc1ccccc1/C=C\C(=O)NCC(=O)N/N=C/c1ccc(O)cc1O	-74*	-80*	20%[15.4 µM]	-1%	-11	-2.2
CCN(CC(=O)Nc1ccc(OC)cc1)C(=O)c1cc(S(=O)(=O)N2CCOCC2)ccc1N1CCCC1	-9	6	1%	-7%	-10	2.0
Cc1ccc(S(=O)(=O)N2CC=C(C(=O)NCCC(C)C)CC2)cc1	7	6	25%[15.4 µM]	4%	-4	0.5
Cc1cc(C(=O)Nc2c(F)cc(F)cc2Br)n(-c2ccccc2)n1	1	-1	1%	-9%	-7	5.5
O=S(=O)(c1ccc2ccccc2c1)n1cccn1	2	4	4%	5%	5	-1.6
CCC1C(=O)N=C(SCC(=O)Nc2ccc(S(N)(=O)=O)cc2)NC1=O (stereo not given)	-10	-11	u	7%	-2	-1.2
Nc1cccc2c1C(=O)N(C(=O)c1cccc(S(=O)(=O)N3CCCC3)c1)C2=O	-5	-8	-36%[inhibitor]	-7%	6	-3.0
Cc1nc2ccccc2c2oc(C(=O)NCc3ccccn3)cc12	u	u	6%	-10%	-5	0.6
CCOC(=O)CN(C(=O)CNC(=O)c1ccco1)C(C(=O)NC1CCCC1)c1ccccc1OCC (stereo not given)	6	2	0%	7%	-5	-0.3
Nc1ncnc2c1ncn2[C@@H]1O[C@H](CNC(=O)[C@H]2CCC(=O)N2)[C@@H](O)[C@H]1O	-19	3	x	6%	x	-1.5
COc1ccccc1CC(=O)NN1C(=O)NC2(CCC(C)CC2)C1=O (stereo not given)	3	6	-2%	-9%	-8	2.8
C/C(=N/NS(=O)(=O)c1ccc(C)c(C)c1)c1ccncc1	0	-15	u	8%	-8	-8.2
COC(=O)c1ccc(C(=O)NC2CCCc3c2cnn3-c2cc(F)cc(F)c2)nc1 (stereo not given)	3	1	-11%[15.4 µM]	10%	-13	-5.2

# The listing continues.
Molecule	CtBP-E1A inh	Six1-Eya2 inh	gsp ag	gsp antag	D2 potentiator	D2 ag
CCCc1nnc(NC(=O)CC(C)c2ccccc2)s1 (stereo not given)	-1	8	-15%[15.4 µM]	2%	-6	0.2
CC1CCCCN1C(=S)NCCc1ccccc1 (stereo not given)	-2	0	-4%	-13%	-6	-2.5
COCCCN1C(=O)C(=O)/C(=C(/O)c2ccc(OC)cc2C)C1c1cccnc1 (stereo not given)	3	12	u	17%	-18	-3.8
C=C1SC(=Nc2c(C)cc(C)cc2C)N(C(=O)c2sc3ccccc3c2Cl)C12CCCCC2	x	-1	u	-2%	-6	0.0
CC1(C)NC(=O)N(CCCCOc2ccc3c(c2)CCC3)C1=O	0	-1	-3%	-13%	-12	-1.7
CCn1c(C)nc2cc(C(=O)N/N=C(\C)c3ccc(N4CCOCC4)cc3)ccc21	x	3	-18%	-6%	-8	0.8
O=C(c1ccc(-c2ccccc2)cc1)C1CCCN(C(=O)c2ccncc2)C1 (stereo not given)	-22	-2	-34%[inhibitor]	u	-2	-17
CCOC(=O)c1cn(Cc2ccc(C)cc2)nn1	-5	14	-8%	11%	3	-2.9
CCOc1ccc(NS(=O)(=O)c2coc(C(N)=O)c2)cc1	6	2	10%	-2%	-1	2.4
Cc1ccc(NC(=O)C2CCCN2S(=O)(=O)c2ccc(F)cc2)c(C)c1 (stereo not given)	4	8	7%	12%	-4	-2.7
COc1cc([N+](=O)[O-])ccc1NC(=O)CCCOc1cccc(C)c1C	-3	-20	-1%	-8%	4	-0.5
COc1ccc(C)cc1S(=O)(=O)N(C)CC(=O)Nc1ccc2c(c1)OCO2	8	2	-18%	-15%	-3	-0.7
O=C(CCSCCC(=O)NCc1ccc(F)cc1)NCc1ccc(F)cc1	-3	0	6%	-8%	-10	-2.1
COc1ccc(Oc2c(C)oc3c(CN4CCOCC4)c(O)ccc3c2=O)cc1	1	6	7%	8%	7	-5.1
C[C@@H]1CN([C@@H](C)CO)C(=O)CCCn2nncc2CO[C@H]1CN(C)C	4	6	u	x	2	-5.4
CC(C)CNC(=O)c1cccc2c(-c3cccnc3)coc12	-2	-10	x	x	-19	12
COc1cccc(C(=O)Nc2ccc(N3CCN(C(=O)c4cccs4)CC3)cc2)c1	3	-9	1%[15.4 µM]	2%	-6	1.2
CC(C)C(=O)NC(Nc1cc(C(F)(F)F)ccc1Cl)C(Cl)(Cl)Cl (stereo not given)	15	7	1%[15.4 µM]	u	-7	-0.2
CC(=O)N1CC[n+]2c(-c3ccc([N+](=O)[O-])cc3)csc21	-5	-7	15%	u	-6	2.7
CCN(CC)S(=O)(=O)c1ccc(OC)c(NC(=O)OCc2ccccc2)c1	23	11	-5%[15.4 µM]	-17%	9	-2.7
CN(C(=O)c1ccc(NC(=O)Cc2cccc(NC(=O)C3CCN(C(=O)C4CCCC4)CC3)c2)cc1)C1CC1	7	3	x	4%	-1	0.5
COc1ccc(Cn2nnnc2C(c2cccs2)N2CCN(c3ccc([N+](=O)[O-])cc3)CC2)cc1 (stereo not given)	4	-7	-7%	7%	-2	0.1
COc1ccc(Cc2nnc(NC(=O)Nc3ccc(C)cc3)s2)cc1OC	x	-11	-4%	0%	-24	6.9
COc1ccccc1N1C(=O)CC(Nc2ccc(N3CCOCC3)cc2)C1=O (stereo not given)	-16	-12	-24%	-18%	13	2.9
